# High-throughput results as filed in PubChem BioAssay.
# MARV entry inh: inhibitors of Marburg virus binding or cell entry | Marburg virus pseudotyped entry inhibition, cell reporter; control for the full effect not named in the record; about a third of the inactives were read at about 46 µM | Potency, µM (series often up to 37.8 µM), without a hit: at the highest dose activity change, negative = inhibition, most hits filed as inhibitors | 300,000 compounds, 1.8% hits; active = well fitted inhibition curve with a large enough effect; inconclusive = small, poorly fitted or top-dose-only effect, or effect the other way; inactive = flat fitted curve, though single readings scatter; tested in HEK293 cells; about a fifth of its hits are not listed in these tables; note: % is set by controls: 0 for no effect and ±100 for the full control effect; luciferase read-out
# SARS PLP yeast: blocks SARS-CoV papain-like protease in a yeast assay; S. cerevisiae expressing SARS-CoV PLpro, growth rescue; control for the full effect not named in the record; Potency, µM (doses to about 32.9 µM), for inactives: top-dose activity, positive = growth rescue; 330,000 compounds, 0.19% hits; note: 0% is about no effect; nearly all actives have a fitted effect of over 55% in size; growth read by luminescence after 48 h
# Cruzain Triton: inhibitors of Trypanosoma cruzi cruzain with detergent. Potency, µM, inactives show max response, negative = inhibition, hits mostly inhibitors. 200,000 compounds, 0.43% hits. purified cruzain, Z-FR-AMC fluorescence, 0.01% Triton; active = well fitted curve in the direction sought with a large enough effect; inconclusive = small, poorly fitted or top-dose-only effect, or another doubt; inactive = no such curve, though single readings can be large; an effect the other way counts as inactive or inconclusive;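 note: plate controls were neutral wells for no effect and buffer without enzyme for full effect; nearly all actives have a fitted effect of over 40% in size; top concentration of the series not given in the record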
# Target sequence (P25779 123-467 limits assumed): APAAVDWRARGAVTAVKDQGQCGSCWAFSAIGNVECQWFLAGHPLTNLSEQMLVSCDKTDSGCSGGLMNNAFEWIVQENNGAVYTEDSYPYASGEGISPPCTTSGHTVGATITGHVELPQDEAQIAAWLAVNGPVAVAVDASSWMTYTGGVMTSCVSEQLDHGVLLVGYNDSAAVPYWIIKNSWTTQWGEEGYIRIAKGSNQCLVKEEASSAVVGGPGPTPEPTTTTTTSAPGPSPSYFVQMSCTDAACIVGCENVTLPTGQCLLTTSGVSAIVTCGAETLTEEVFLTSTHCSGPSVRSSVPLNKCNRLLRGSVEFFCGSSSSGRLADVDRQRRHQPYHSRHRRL
#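 Cysteine protease activity tested under reducing, mildly acidic conditions (100 mM sodium acetate pH 5.5, 5 mM DTT) plus 0.01% Triton X-100. Cruzain 1.5 nM; substrate Z-FR-AMC 2 uM; 15 min compound preincubation at room temperature.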
# NS1 inh: influenza NS1 inhibition; Potency, µM (series often up to 46.1 µM), without a hit: at the highest dose activity, positive = more growth; 270,000 compounds, 0.4% hits; S. cerevisiae slowed by influenza A NS1, growth recovery by OD600; note: actives are rising curves; nearly all actives have a fitted effect of over 50% in size
#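 S. cerevisiae expressing influenza A NS1, grown in glucose, washed, then diluted 1:100 into pH 6.0 -URA galactose medium with 23 nl compound. Growth recovery read as OD600; NS1-free strain serves as control.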
# RE007 growth inh: less growth of the S. pombe RE007 Vpr strain. 360,000 compounds, 0.21% hits. S. pombe RE007 Vpr strain, BacTiter-Glo ATP luminescence, 24 h; control for the full effect not named in the record. Potency, µM (top dose mostly 92.2 µM), for the others: top-dose activity change, negative = less growth. AID 651644; active = well fitted falling curve with a large enough effect; inconclusive = small, poorly fitted or top-dose-only effect; inactive = no such curve, though single readings can be large or run the other way;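 note: % is set by controls: 0 for no effect and ±100 for the full control effect; nearly all actives have a fitted effect of over 50% in size; the assay follows cell death caused by Vpr and the record does not say whether a fall means rescue or toxicity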
#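 Fission yeast strain RE007, carrying one chromosomally integrated HIV-1 vpr copy, was seeded at OD 0.01 in PMG+AL medium with 23 nL pinned compound. After 24 h at 30 °C and 99% humidity, viability was read by BacTiter-Glo luminescence.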
# Cruzain inh noDet: cruzain (T. cruzi) inhibition without detergent. purified cruzain, Z-FR-AMC fluorescence, no detergent. Potency, µM, without a hit: max response, negative = inhibition, hits mostly inhibitors. 200,000 compounds, 2.3% hits; active = well fitted curve in the direction sought with a large enough effect; inconclusive = small, poorly fitted or top-dose-only effect, or another doubt; inactive = no such curve, though single readings can be large; an effect the other way counts as inactive or inconclusive;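 note: plate controls were enzyme without inhibitor for no effect and buffer without enzyme for full effect; nearly all actives have a fitted effect of over 40% in size; top concentration of the series not given in the record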
#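 Purified cruzain at 1.5 nM, pre-incubated 15 min with compound at room temperature in 100 mM sodium acetate pH 5.5, 5 mM DTT, 0.00005% Triton X-100. Reaction started with 2 uM Z-FR-AMC; AMC fluorescence increase over 60 s gives rate.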
# StopGo reporter: FMDV 2A StopGo reporter, luciferase signal; human cells with a luciferase reporter of 2A StopGo recoding; control for the full effect not named in the record; Potency, µM (highest dose often 57.9 µM), without a hit: at the highest dose signal change, negative = less light; 410,000 compounds, 1.2% hits; AID 1159524; active = well fitted falling curve with a large enough effect; inconclusive = small, poorly fitted or top-dose-only effect; inactive = no such curve, though single readings can be large or run the other way; tested in HEK293T cells; note: % is set by controls: 0 for no effect and ±100 for the full control effect; nearly all actives have a fitted effect of over 45% in size; luciferase light after 4 h
# LASV entry inh: Lassa virus entry inhibition. 300,000 compounds, 1.2% hits. Potency, µM (top dose mostly 37.9 µM), inactives show at the highest dose activity change, negative = inhibition, hits mostly inhibitors. Lassa virus pseudotype entry inhibition, cell reporter; control for the full effect not named in the record; active means well fitted inhibition curve with a large enough effect; inconclusive means small, poorly fitted or top-dose-only effect, or effect the other way; inactive means flat fitted curve, though single readings scatter; tested in HEK293 cells; note: % is set by controls: 0 for no effect and ±100 for the full control effect; nearly all actives have a fitted effect of over 50% in size; luciferase read-out
# * hit, by the source's call; ? = inconclusive; . = no result given; [ ] = another dose, or the depositor's remark. Unless noted, calls come from the whole dose curve; as a rule, active means well fitted rising curve with a large enough effect; inconclusive means small, poorly fitted or top-dose-only effect; inactive means no such curve, though single readings can be large or run the other way. Potency is the fitted concentration of half-maximal effect.
# Order of values: StopGo reporter, SARS PLP yeast, LASV entry inh, Cruzain Triton, NS1 inh, Cruzain inh noDet, RE007 growth inh, MARV entry inh
- COC(=O)C1C(c2ccc(N(C)C)cc2)C(C(=O)OC)S(=O)(=O)CS1(=O)=O (stereo not given)
    -16%, 0%, -13%, ., 20%, ., 2%, 24%[46.1 µM]
- Cc1ccc(-n2ncc3c(Nc4cccc(C)c4C)ncnc32)cc1
    -16%, ., 7%[46.1 µM], -0.5%, ., 5%, ., .
- CCN(CCCNC(=O)c1c(C)cc(=O)oc1C)c1cccc(C)c1
    3%, 2%, -1%, -6.8%, -18%, 0%, -7%, -4%
- COCCOc1cc(N2C(=O)CSCC2=O)c(Cl)cc1Cl
    -4%, -5%, ?, -0.5%, -36%, -3%, 1%, -16%
- COc1ccc(OC)c(S(=O)(=O)NCCc2csc3nc(-c4ccccc4)nn23)c1
    72%[activator], ., -22%[46.1 µM], -2.6%, ., 2%, ., .
- O=C(/C(=N\Nc1ccccc1)Sc1nnnn1-c1ccccc1)c1ccccc1
    31%[activator], 14%, 6%, -7.2%, 7%, -27%, 10%, -9%
- CCOc1ccc(CNC(=O)c2cccc(NC(=O)C3=C(C)OCCS3)c2)cc1
    -21%, 5%, ., ., -15%, ., ?, .
- O=C(NCCc1nnc2ccc(NCCCN3CCOCC3)nn12)c1ccccc1
    -2%, -2%, ?, ., -8%, ., -16%, 7%
- CC(=O)Nc1ccc(S(=O)(=O)N2CCCC(C(=O)O)C2)cc1 (stereo not given)
    7%, -3%, -9%, ., 5%, ., 21%, 21%[46.1 µM]
- COc1cc(/C=N/NC(=O)c2ccc(COc3ccccc3Cl)o2)cc(Br)c1O
    -7%, -4%, 0%, -8.9%, 5%, 0%, 1%, -1%
- COc1ccccc1-n1c(=O)c2c3c(sc2n2c(SC(C)C)nnc12)CCC3
    -14%, -4%, -16%, -5.0%, 5%, ?, 24%, 0%
- COc1ccc(S(=O)(=O)N2CCN(CC(O)COc3ccc(C#N)cc3)CC2)cc1OC (stereo not given)
    ?, 0%, ., ., 3%, ., -16%, 6%[46.1 µM]
- CC1C/C(=N/NC(=O)c2cccc(F)c2)c2ccc(O)cc2C1 (stereo not given)
    18%, -5%, -2%, -8.0%, 7%, -3%, -15%, -1%
- O=C(CN1C(=O)NC(CCc2ccccc2)C1=O)NC1CC1 (stereo not given)
    -2%, 1%, ., ., ., ., 1%, -3%[46.1 µM]
- O=C(C[n+]1cccc(/C=N/O)c1)N1CCCCCC1
    3%, 1%, 7%, ., ., ., 6%, ?
- CC(Oc1ccc(Cl)cc1)C(=O)NCCCn1ccnc1 (stereo not given)
    ., 1%, 2%, 1.3%, 13%, -2%, 6%, ?
- CC(C)CC(COCc1cccc(Cl)c1)N1CCN(C(=O)c2ccc(C(F)(F)F)cc2)CCC1=O (stereo not given)
    ?, -17%, 10µM*, -11%, 1%, ?, 14%, ?
- CN1CCN(c2ncnc3c2[nH]c2ccc(F)cc23)CC1
    ?, 3%, 0%, -5.7%, 1%, -12%, -1%, -6%
- CC(C)OC(=O)C1C(=O)CC(C)(O)C(C(=O)OC(C)C)C1c1ccc(F)cc1 (stereo not given)
    8%, 2%, -1%, 0.4%, -6%, 24%, 4%, -3%
- N#CC1=C(N)N(c2ccc(Cl)c(Cl)c2)C(=O)C1
    -11%, 1%, -4%[46.1 µM], ., ., ., -9%, 15%[46.1 µM]
- Cc1ccc(C(=O)C2=C(O)C(=O)N(Cc3cccnc3)C2c2ccc(Cl)c(Cl)c2)o1 (stereo not given)
    -26%, 2%, ., ., -42%, ., 12%, .
- CN(CC(=O)Nc1cccc2ccccc12)C(=O)/C=C/c1cccs1
    12%, 11%, 8%, -4.2%, 2%, 2%, 7%, ?
- COC(=O)c1cccc(C(=O)N2CCCC(C(=O)c3cc(F)ccc3F)C2)c1 (stereo not given)
    -7%, 0%, -20%[46.1 µM], ., -1%, ., 45%, 6%[46.1 µM]
- CC(C)CCN(Cc1ccco1)S(=O)(=O)c1csc(C(N)=O)c1
    11%, -2%, ., ., 6%, ., -6%, .
- Cc1ccc2c(c1)C1(C)C(C(C)(C)N2C=O)C1(Cl)Cl (stereo not given)
    -19%, -2%, ., ., -13%, ., -11%, .
- Cn1cccc1/C=N/NC(=O)c1cc2ccccc2cc1O
    33%[activator], 2%, 6%, ., -13%, ., -7%, -21%[46.1 µM]
- COc1ccc(Cl)cc1NS(=O)(=O)c1ccc2c(c1)NC(=O)CCS2
    23%, 0%, ., ., 3%, ., -5%, .
- CC(=O)Oc1ccccc1C(=O)N1CCN(S(=O)(=O)c2ccc3ccccc3c2)CC1
    12%, 0%, ., ., -8%, ., -1%, .
- CC(C)c1cc(C(=O)NNC(=S)NC2CCCCC2)cs1
    26%, -5%, ?, ., -5%, ., 14%, 10%[46.1 µM]
- O=C(Nc1cc(Cl)ccc1O)C1CC(c2c(F)cccc2Cl)=NO1 (stereo not given)
    59%[activator], -10%, ?, ., -54%, ., -19%, -17%
- COC(=O)c1cc(C(=O)N2CCN(c3ccccc3OC)CC2)cc([N+](=O)[O-])c1
    -7%, -1%, -28%, ., -3%, ., 7%, ?
- Cc1cccc(C)c1NC(=O)N1C(C(=O)O)CSC1C(=O)O (stereo not given)
    14%, 1%, -10%, 2.6%, -1%, -18%, 5%, -11%
- CC(C)C(=O)Nc1nnc(SCC(=O)NCc2ccco2)s1
    4%, 8%, 6%, 2.0%, -1%, 9%, -2%, 26%
- COc1ccc(CNC(c2ccccc2)c2ccc(Cl)cc2)cc1 (stereo not given)
    16%, -3%, 1%, ., -39%, ., -22%, ?
- Cc1ccc2cc(C=O)c(N3CCOCC3)nc2c1C
    -20%, -10%, -11%, ., -29%, ., -1%, 9%
- O=C(Nc1cc(F)ccc1F)C1CCN(c2nc3ccccc3n3cccc23)CC1
    -24%, ., -17%[46.1 µM], -6.4%, ., ?, ., .
- COc1ccc(OC)c2sc(NC(=O)CCSc3ccccc3)nc12
    -25%, -8%, ., -2.5%, 8%, -21%, 9%, .
- COc1ccc(-n2c(NN)nc3sc4c(c3c2=O)CCCC4)cc1
    -6%, 0%, -3%[46.1 µM], ., ., ., 3%, ?
- CCOC(=O)C(NC(=O)c1ccc(OC)cc1)(N1CCOCC1)C(F)(F)F (stereo not given)
    9%, -2%, -25%[14.3 µM], 0.5%, 10%, 4%, -1%, 4%
- CCc1nc(Nc2ccccc2O)c2oc3ccccc3c2n1
    -4%, 5%, ?, ., 10%, ., 3%, 2%[46.1 µM]
- CS(=O)(=O)N(CC(=O)N1CCCC1)c1ccc(Cl)cc1
    -12%, 15%, 1%[46.1 µM], ., 0%, ., 9%, 13%[46.1 µM]
- NC(=S)N/N=C/c1ccccc1[N+](=O)[O-]
    -4%, 1%, -12%, ., -1%, ., 1%, -3%[46.1 µM]
- O=c1/c(=C/c2ccco2)sc2n1CN(c1cccc(Br)c1)CN=2
    -14%, 8%, ?, -10%, 26%, -22%, 15%, -8%
- CCc1nn(CC(=O)Nc2ccc(NC(C)=O)cc2)c(=O)c2cc3sccc3n12
    -21%, ., ., 3.3%, ., 2%, ., 5%[46.1 µM]
- CN(C)/C=N/c1ncc(C(=O)c2ccc3ccccc3c2)s1
    -9%, -1%, 0%, -11%, 1%, 25%, -27%, ?
- CCCN1CCC(=NNc2ccc(S(N)(=O)=O)cc2[N+](=O)[O-])CC1
    18%, 0%, -3%, ., ., ., -16%, 3%[46.1 µM]
- CCCN(Cc1cccs1)C(=O)Nc1ccc(F)c(Cl)c1
    7%, ., 1%[46.1 µM], -6.5%, ., ?, ., -17%[46.1 µM]
- CC1(C(=O)O)CCC(C(=O)NNC(=O)c2ccccc2Cl)C1(C)C (stereo not given)
    -8%, ., ?, ., ., ., 24%, 12%[46.1 µM]
- N#CCCN1CCN(S(=O)(=O)c2ccc(S(=O)(=O)N3CCCC3)cc2)CC1
    -13%, ?, ., 1.2%, -13%, -6%, -12%, .
- COCCCNc1nc(NCc2cccc(Cl)c2)c2cnn(C)c2n1
    ?, ., -9%[46.1 µM], -2.2%, ., -1%, ., .
- CCOC(=O)CSc1nc2c(c(=O)[nH]c(=O)n2C)n1CCc1ccccc1
    -13%, 7%, 7%, 4.3%, 5%, -7%, 1%, ?
- CCC(=O)Nc1ccc(NC(=O)CSc2nnnn2-c2ccc(OC)cc2)cc1
    1%, 0%, ., ., 1%, ., 11%, .
- COCCn1cnc2c1c(=O)n(CC(=O)Nc1cc(C)on1)c(=O)n2Cc1ccccc1
    -13%, 7%, -2%, 3.7%, -7%, -3%, -8%, 1%[46.1 µM]
- CC(=C\C(=O)O)/C(=C/c1ccc(C)o1)C(=O)O
    -5%, 2%, ?, -5.1%, 11%, -4%, -6%, 3%
- COCC(=O)Nc1cc([N+](=O)[O-])ccc1OC
    0%, 4%, 3%, -5.5%, 2%, 2%, 9%, -5%
- CC(C)NCCCOc1ccc(Cl)cc1Br
    ?, 5%, 4%, -3.1%, 15%, 2%, 2%, ?
- C=CCn1c(SC2CCOC2=O)nc2sc(CC)cc2c1=O (stereo not given)
    3%, ?, 7%, -2.6%, -12%, 7%, 13%, -27%

# Arranged by number of heavy atoms (high to low): 3 of the compounds above.
# Order of values: StopGo reporter, SARS PLP yeast, LASV entry inh, Cruzain Triton, NS1 inh, Cruzain inh noDet, RE007 growth inh, MARV entry inh
- COCCCNc1nc(NCc2cccc(Cl)c2)c2cnn(C)c2n1
    ?, ., -9%[46.1 µM], -2.2%, ., -1%, ., .
- Cc1ccc2cc(C=O)c(N3CCOCC3)nc2c1C
    -20%, -10%, -11%, ., -29%, ., -1%, 9%
- COCC(=O)Nc1cc([N+](=O)[O-])ccc1OC
    0%, 4%, 3%, -5.5%, 2%, 2%, 9%, -5%
